MgrA DNA FP = alters Staphylococcus aureus MgrA binding to DNA; fluorescence polarization; inhibition, %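 (about 10 µg/mL by stock and volumes)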; AID 602314; actives 0.13% (n = 84,000);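 active means above 50% in either of two replicates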;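 further: 0% = protein plus DNA without compound and 100% = DNA alone without protein; higher means less MgrA bound to DNA so lower polarization; one replicate is shown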
Sa helicase inh = S. aureus DNA helicase inhibition. purified S. aureus helicase, fluorescence unwinding assay; about half of the hits fall short of the stated cut. inhibition, %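 (tested at about 80 µM)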. actives 0.05% (n = 120,000). AID 485395;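 active means both duplicates at 50% or more, or one of them with a favoured structure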;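 further: 0% = mean of negative control wells and 100% = mean of positive control wells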
* hit, by the source's call; x = no result given.

entry	MgrA DNA FP	Sa helicase inh	mol
1	0.2	6.0	COc1ccccc1C(O)(C(=O)NNc1cccc(Br)n1)c1ccccc1OC
2	x	5.0	Cn1cc(-c2nc3ccccc3[nH]2)c(-c2ccccc2)n1
3	0.2	-4.0	CCCc1cc(=O)n2[nH]c(NC(=O)CCc3ccccc3)nc2n1
4	-2.2	14.0	O=C(O)C1C2CCC(C2)C1C(=O)NCc1ccco1 (configuration not stated)
5	-1.0	5.0	COC(=O)CSc1nc2[nH]c(=O)cc(O)c2s1
6	0.2	4.0	C=C(C)C1CC=C(CN2CCN(c3ccccc3)CC2)CC1 (configuration not stated)
7	4.2	3.0	COc1ccc(C)c(N2C(=O)CC(N3CCN(c4ccc(F)cc4)CC3)C2=O)c1 (configuration not stated)
8	x	-9.0	CC(C(=O)NC(=O)NC1CCCCC1)N1CCN(S(=O)(=O)c2ccc3c(c2)OCCCO3)CC1 (configuration not stated)
9	-0.6	x	O=[N+]([O-])c1ccc(Sc2ccccc2)cc1O
10	x	11.0	OC(CNCC1COc2ccccc2O1)COc1ccccc1F (configuration not stated)
11	-1.2	x	CS(=O)c1scc(-c2cccc(C(F)(F)F)c2)c1C#N (configuration not stated)
12	-0.1	x	Cc1onc(-c2c(Cl)cccc2Cl)c1C(=O)Oc1ccc(CC#N)cc1
13	-3.0	0.0	O=C(Cn1c(=O)sc2ccccc21)OCc1ccccc1
14	x	5.0	CCOC(=O)CSc1n[nH]c(N)n1
15	x	16.0	CC(=O)n1cc(N2C(=O)C3C4C=CC(C4)C3C2=O)c(=O)[nH]c1=O (configuration not stated)
16	x	-18.0	O=[n+]1cc(-c2ccc(F)cc2)n([O-])c2c1CCCC2
17	x	-9.0	CC(C)Cn1[nH]nnc1=S
18	-0.4	11.0	COc1ccc(C2OC(=O)C(C)(C)C(=O)C2C)cc1OC (configuration not stated)
19	4.9	16.0	CN(/N=C1/CCN(C2CCCCC2)C1=O)c1ccc(Cl)cc1
20	5.2	6.0	CCn1ncc(CN2CCN(C(=S)Nc3ccc(Br)cc3Cl)CC2)c1C
21	1.1	x	COc1ccc(S(=O)(=O)N(CCC#N)C2CCCc3ccccc32)cc1OC (configuration not stated)
22	-2.1	5.0	Cc1cc(C#N)c(C)n1-c1ccc(Br)cc1
23	x	-9.0	O=C(CCN1CCN(c2nccc(C(F)(F)F)n2)CC1)N1CCCN(c2ccc(C(F)(F)F)cn2)CC1
24	1.3	2.0	Cn1c(CCc2nc3ccccc3[nH]2)nnc1SCC#N
25	0.7	x	COC(=O)c1c(C)oc(C)c1S(=O)(=O)N(C)C1CCCCC1
26	x	-20.0	COc1cccc2sc(=NC(=O)c3ccc(C#N)cc3)n(C)c12
27	-2.2	8.0	CC1S/C(=N\C(=O)Nc2ccc(Cl)cc2)NC1=O (configuration not stated)
28	0.8	x	O=C(NCc1csc(-c2cccs2)n1)c1ccno1
29	-1.6	4.0	Cc1cc(C)nc(N(C#N)CC(=O)N2CCC(C(N)=O)CC2)n1
30	-0.6	12.0	O=C(O)CNC(=O)OCc1ccccc1

(further entries)
entry	MgrA DNA FP	Sa helicase inh	mol
31	x	4.0	Cc1nn(C2CCS(=O)(=O)C2)c(Cl)c1/C=C/C(=O)OCCCn1c(=O)[nH]c2ccccc21 (configuration not stated)
32	x	-16.0	CCN(C(=O)c1cnn(-c2ccccc2)n1)c1nc2c(C)cccc2s1
33	x	-20.0	C=CCn1c(-c2c(Nc3ccc(Cl)cc3)sc(C(=O)c3ccccc3)c2N)nnc1N1CCOCC1
34	x	7.0	CC1CCCC(NC(=O)CN2CCCN(Cc3ccc(F)cc3Cl)C2=O)C1C (configuration not stated)
35	x	5.0	O=C(COc1cccc(Cl)c1)Oc1ccc2c3c(c(=O)oc2c1)CCC3
36	1.0	7.0	NCCCSC1=NCCCN1
37	1.8	-5.0	Cc1ccccc1OCC(O)Cn1c2ccccc2c2ccccc21 (configuration not stated)
38	x	21.0	O=C(CCn1nc(-c2ccc(Cl)cc2)ccc1=O)NCCN1CCN(c2cccc(Cl)c2)CC1
39	4.4	11.0	O=C(O)CCn1cc(I)c(=O)[nH]c1=O
40	-0.7	x	CCN(C(=O)c1cccc(OC)c1)c1cccc2ccccc12
41	-0.4	-19.0	O=C(OCC(=O)N1CCCCC1)c1ccccc1C(F)(F)F
42	x	-11.0	COc1cccc(/C=N/NC(=O)CNc2ccccc2)c1
43	-0.9	5.0	CC(C)NC(=O)C(N)Cc1c[nH]c2ccccc12 (configuration not stated)
44	x	-2.0	O=C1c2ccccc2C(=O)N1CCN1c2cccc3cccc(c23)S1(=O)=O
45	x	1.0	CN(C)S(=O)(=O)c1ccc(C(=O)N2CCN(c3ccccc3)CC2)cc1
46	-3.2	17.0	Cc1cc(C(=O)O)c(CN2CCCC2)o1
47	0.6	-9.0	O=c1c2ccccc2c(-c2ccccc2)nn1Cc1ccccc1
48	-2.4	x	CSC(=N)n1nc(SC)nc1N
49	-0.1	15.0	COC(=O)c1ccc(N2C(=O)c3ccc(N)cc3C2=O)cc1
50	x	2.0	CC1CCCC(C)N1C(=O)COC(=O)c1ccc(NS(=O)(=O)c2ccc3c(c2)OCCO3)cc1 (configuration not stated)
51	x	2.0	O=S(=O)(c1ccc(NCCOc2ccccc2)nc1)N1CCCC1
52	x	1.0	CSc1nnc(NC(=O)c2cccs2)s1
53	1.7	x	NC(=O)c1ccc(-c2ccc(Cl)cc2)s1
54	x	0.0	O=P(c1ccccc1)(c1nc2ccccc2s1)N1CCCCCC1 (configuration not stated)
55	0.9	4.0	CCN(CC)C(=O)Oc1ccnc2cc(Cl)ccc12
56	0.2	10.0	O=C(Cn1ncc2ccccc21)N1CCc2ccccc2C1
57	-2.9	3.0	Cc1nc(/N=C(/N)NC(=O)c2ccccc2)nc2ccccc12
58	x	10.0	C=CCn1c(-c2nonc2NC(=O)c2ccccc2Cl)nc2ccccc21
59	x	17.0	CCN(Cc1ccc2c(c1)OCO2)C(=O)c1cc(F)c(F)cc1Cl
60	x	-23.0	COc1cc(C(CC(=O)N2CCCCC2)N2Cc3ccccc3C2=O)cc(OC)c1OC (configuration not stated)

(continued)
entry	MgrA DNA FP	Sa helicase inh	mol
61	x	3.0	N=C(N)N=Nc1ccc(NN=C(N)N)cc1
62	0.3	-15.0	CCOC(=O)C1CCN(C(=O)Nc2ccccc2)CC1
63	1.4	8.0	O=C(COc1ccccc1Br)Nn1c(=S)[nH]c2ccccc2c1=O
64	x	3.0	Cc1n[nH]c(C)c1S(=O)(=O)Nc1ccc(S(=O)(=O)N2CCCCCC2)cc1
65	0.9	12.0	CCOC(=O)c1ccc2nc(C(F)(F)F)nc(NCCc3ccc(OC)cc3)c2c1
66	x	1.0	CNS(=O)(=O)c1cn(CC(=O)NCc2ccccn2)cc1S(=O)(=O)NC
67	5.4	x	COc1cc(/C=C2\C(=O)NC(=O)N(C)C2=O)ccc1OCc1ccc(C(=O)O)cc1
68	-3.8	9.0	Cn1c(SCC(=O)OCC(=O)c2ccc(Br)cc2)nc2c1c(=O)[nH]c(=O)n2C
69	-0.2	-6.0	C=CCn1c(SCC(=O)N2CCN(c3ccc(F)cc3)CC2)nnc1-c1ccco1
70	-1.7	7.0	O=C(CSc1nc2ccccc2[nH]1)Nc1cccc(Oc2ccccc2)c1
71	-1.1	x	O=S1(=O)CCN(Cc2cccc(C(F)(F)F)c2)CC1
72	x	4.0	O=C(NCc1ccco1)c1cc(-c2ccccc2)c(N2CCOCC2)s1
73	x	-2.0	CCn1c(SCc2nc3ccccc3[nH]2)nc2ccccc21
74	x	-15.0	Oc1ccccc1-c1cc(C(F)(F)C(F)F)no1
75	1.4	x	COC(=O)c1onc(-c2c(Cl)cccc2Cl)c1C(=O)OC
76	-1.8	5.0	Cn1ncc(Br)c1C(=O)NN
77	x	-7.0	O=C(OCC(=O)c1ccc[nH]1)c1ccc(CN2CCCC2=O)cc1
78	x	-17.0	O=C(Cn1c(=O)n(Cc2cccs2)c(=O)c2cccnc21)Nc1ccccc1
79	-0.6	-16.0	Cc1cc(N)n(-c2nc3ccccc3n2Cc2ccc(C#N)cc2)n1
80	16.7	x	COc1cc(/C=C2/SC(=S)N(CC(=O)O)C2=O)ccc1Oc1ccc([N+](=O)[O-])cc1[N+](=O)[O-]
81	x	4.0	COC(=O)c1ccc(CSc2ncnc3c2oc2ccccc23)o1
82	-11.0	11.0	O=S(=O)(Nc1cc(Sc2ncn[nH]2)c(O)c2ccccc12)c1cccs1
83	-0.8	-3.0	COc1cccc(C(=O)Oc2ccc3c(c2)NC(C)(C)C=C3C)c1
84	-8.2	8.0	Cn1c(=O)oc2cc(S(=O)(=O)N3CCCCC3)ccc21
85	x	8.0	CCn1nnc2c(N3CCc4cc(OC)c(OC)cc4C3C)ncnc21 (configuration not stated)
86	x	-12.0	COC(=O)CCC(=O)c1oc2ccc(Br)cc2c1N
87	x	-3.0	CCc1cc2c(C)cc(=O)oc2cc1OC(=O)[C@@H]1CCCN1C(=O)OC(C)(C)C
88	0.7	x	CC1=NN(C)C(=O)/C1=C/c1c(C)[nH]n(C)c1=O
89	-1.3	4.0	NC(Cn1ccnc1)c1ccccc1 (configuration not stated)
90	-0.7	x	COc1ccccc1N1CCN(C(=S)c2ccccc2OC(F)(F)F)CC1

The listing continues:
entry	MgrA DNA FP	Sa helicase inh	mol
91	-0.7	2.0	O=C(Nc1ccccc1)O/N=C/c1ccccc1
92	-2.2	8.0	CCc1nnc2sc(-c3ccc(N)cc3)nn12
93	x	-5.0	Cc1cc(C(=O)COC(=O)Cc2n[nH]c(=O)c3ccccc23)c(C)n1-c1ccc2c(c1)OCO2
94	-1.1	x	CC1CC(NC(=S)N(C)C)CC(C)(C)C1 (configuration not stated)
95	x	-30.0	CCC(C)NC(=O)C1CCN(S(=O)(=O)c2cccc3nsnc23)CC1 (configuration not stated)
96	-2.0	x	CN1CCN(c2c3c(nc4ccccc24)C2(C)CCC3C2(C)C)CC1 (configuration not stated)
97	x	11.0	Cc1ccsc1-c1nc(CSCC(=O)NCc2ccc3c(c2)OCO3)c(C)o1
98	1.7	1.0	COc1ccc(CCNC(=O)C(F)(F)F)cc1
99	-0.7	x	O=C1CSC(c2ccccc2)N1c1cccnc1 (configuration not stated)
100	5.2	-2.0	COC(=O)C1=C(C)NC(=O)CC1c1ccccc1 (configuration not stated)
101	5.5	-22.0	O=C(COC(=O)CCC1CCCC1)Nc1ncc(C(F)(F)F)cc1Cl
102	10.1	-1.0	CC1(C)CC(NCC(=O)NC2CC(C)(C)NC(C)(C)C2)CC(C)(C)N1
103	x	3.0	O=C(c1cccc(Oc2ccccc2)c1)N1CCN(C2CCS(=O)(=O)C2)CC1 (configuration not stated)
104	x	10.0	CCN(CC)S(=O)(=O)c1ccc(Sc2nncs2)nc1
105	x	18.0	Cc1nc2ccn(Cc3ccco3)c(=O)c2cc1C(=O)NCc1ccco1
106	x	-5.0	COc1ccccc1C(CNC(=O)c1cccc(-n2cnnn2)c1)N1CCCC1 (configuration not stated)
107	x	-74.0	Cn1c(=O)n(C)c2cc(/C=C3/SC(=O)N(Cc4ccc(Cl)cc4)C3=O)ccc21
108	-0.7	9.0	O=C1/C(=C/c2cc(Br)cs2)CCC1C1CCCC1 (configuration not stated)
109	-2.5	4.0	C=CCn1cc(Cc2cn(CC=C)nc2C)c(C)n1
110	1.9	x	COc1ccccc1N1CCN(C(=O)c2cnn(-c3ccc(Cl)cc3)c2C)CC1
111	1.1	7.0	COc1cc(NC(=O)CN2C(=O)COc3cc(S(=O)(=O)N4CCOCC4)ccc32)cc(OC)c1
112	x	-11.0	c1ccc(-c2nc3sc(-c4ccccc4)nc3s2)cc1
113	x	3.0	CN(C)NC(=S)NC(=O)C12CC3CC(CC(C3)C1)C2
114	x	14.0	CC(C)NC(=S)N/N=C/c1cccc(O)c1
115	-2.5	x	O=C(Nc1ccc2c(c1)C(=O)OC2)c1cccs1
116	x	-26.0	CCC(=O)N1C(C(=O)NCc2ccccc2F)CSC12CCN(C)CC2 (configuration not stated)
117	1.1	3.0	CC(C)N(C(=S)Nc1cccc(C(F)(F)F)c1)C(C)c1ccccn1 (configuration not stated)
118	x	9.0	COc1cc(C(=O)COC(=O)CSc2nc3ccccc3o2)ccc1OC(F)F
119	x	10.0	CN1CCN(C(=O)c2cc(-c3ccc(F)cc3)on2)CC1
120	-2.2	x	O=C(c1ccco1)N1CCN(c2nc(-c3cccs3)ns2)CC1

Remaining list, next part
entry	MgrA DNA FP	Sa helicase inh	mol
121	-0.8	x	c1coc(CSCc2ccc3nonc3c2)c1
122	-1.8	12.0	Nc1cc(C(F)(F)F)ccc1Sc1nc2ccccc2s1
123	x	-17.0	Cc1csc(NC(=O)CSc2ccccc2)n1
124	x	6.0	CC(C)NS(=O)(=O)Cc1ccc(C#N)cc1
125	x	8.0	CCOC(=O)N1CCc2c(sc3c2c(=O)n(-c2ccc(F)cc2)c(=O)n3CC(=O)N(CC)CC)C1
126	-1.2	x	O=C(CSc1ssc(=S)c1-c1ccccc1)Nc1ccc(F)c(F)c1F
127	-0.9	x	O=C(/C=C1\OC(=O)c2ccccc21)Oc1cc(Cl)cc(Cl)c1
128	0.9	-21.0	CCCn1c(NCc2ccc(C)o2)nc2ccccc21

Quoted from above: nos. 124–128
entry	MgrA DNA FP	Sa helicase inh	mol
124	x	6.0	CC(C)NS(=O)(=O)Cc1ccc(C#N)cc1
125	x	8.0	CCOC(=O)N1CCc2c(sc3c2c(=O)n(-c2ccc(F)cc2)c(=O)n3CC(=O)N(CC)CC)C1
126	-1.2	x	O=C(CSc1ssc(=S)c1-c1ccccc1)Nc1ccc(F)c(F)c1F
127	-0.9	x	O=C(/C=C1\OC(=O)c2ccccc21)Oc1cc(Cl)cc(Cl)c1
128	0.9	-21.0	CCCn1c(NCc2ccc(C)o2)nc2ccccc21

3 of these compounds in another layout.
126) O=C(CSc1ssc(=S)c1-c1ccccc1)Nc1ccc(F)c(F)c1F
  MgrA DNA FP: -1.2
  Sa helicase inh: x

127) O=C(/C=C1\OC(=O)c2ccccc21)Oc1cc(Cl)cc(Cl)c1
  MgrA DNA FP: -0.9
  Sa helicase inh: x

128) CCCn1c(NCc2ccc(C)o2)nc2ccccc21
  MgrA DNA FP: 0.9
  Sa helicase inh: -21.0

Screening data deposited in PubChem BioAssay by ICCB-Longwood Screening Facility, Harvard Medical School.

Not all compounds are listed; count on the stated rates, not on these rows.
